# High-throughput results from PubChem.
# HIV TAR-Tat: HIV-1 TAR-Tat binding disruption. HIV-1 TAR RNA, Tat peptide displacement FRET; active compounds read high. z-score (test concentration not listed). 100,000 tested, 0.6% active. AID 1259389;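 further: score is relative to mean and SD of negative controls; some compounds called inactive have numbers as strong as hits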
# CDC25B CDK2 inh: human CDC25B-CDK2/CyclinA binding inhibition; HTRF CDC25B-CDK2/CyclinA binding, anti-His/anti-Flag; active compounds read high; z-score (test concentration not listed); 94,000 tested, 0.72% active;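 further: score is relative to mean and SD of negative controls; strong numbers were not always called active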
# The depositor's hits bear a star; nt = not tested or not shown.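 How the source made its calls: active means z-score from 3 up in half or more of its runs; inactive means the rest.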 Hits appear at their usual frequency; overall some 0.89% were active at least once.
Structure	HIV TAR-Tat	CDC25B CDK2 inh
Cc1ccc(C(=O)CC2(O)C(=O)Nc3c(C)cccc32)cc1 (stereo unspecified)	-0.65	1.3
C#CCOc1nnc(C)c2nnn(Cc3ccc(F)cc3)c12	1.1	0.06
COc1ccc(-c2nc3n(n2)C(c2ccc(Cl)cc2)C2=C(CCCC2=O)N3)cc1OC (stereo unspecified)	-0.61	-1.3
CC1(C)Cc2ccccc2C(NC(=O)N2CCCC2)=C1C#N	1.2	-1.3
Cc1c(Cl)cccc1S(=O)(=O)N1CCC(N2CCOCC2)CC1	0.27	nt
CC1=C(C(=O)Nc2cc(C)ccn2)C(c2ccsc2)C2=C(CC(C)(C)CC2=O)N1 (stereo unspecified)	2.2	-2.3
Cc1cc(NC(=O)N2CCC3(CC2)Nc2ccccc2-n2cccc23)ccc1Br	0.43	nt
CCOc1ccc(OCC)c(NC(=O)C2CCN(S(=O)(=O)c3c(C)noc3C)CC2)c1	nt	-0.71
Cn1c(=O)c2sccc2n2c(CCC(=O)Nc3ccc(F)cc3)nnc12	0.91	0.56
CCc1c(C)c2c(C)nn(-c3ccccc3)c2[nH]c1=O	nt	-1
Clc1ccc2nc(Nc3ccc4c(c3)OCCO4)c3nncn3c2c1	-0.72	-0.64
Cc1oc2c(F)c(F)c(F)c(F)c2c1-c1noc(C(C)(C)C)n1	nt	-0.14
C=CCNc1nc(-c2ccc(O)c(OC)c2)cs1	-0.7	-1.9
CN(C(=O)Cn1ncc2c([nH]c3ccccc32)c1=O)c1cccc(Cl)c1	-0.14	nt
CSc1nc(-c2ccccc2)nc2c1Cc1c(CO)cnc(C)c1O2	2.5	nt
COc1cccc(-c2nnc(SCc3ccccc3Cl)o2)c1	-0.12	-0.22
CCSCCOC(=O)C1=C(C)NC2=C(C(=O)C(C(=O)OC)C(C)C2)C1c1c(F)cccc1Cl (stereo unspecified)	1.8	0
O=C(CSc1ccc2nnc(-c3ccc(Cl)cc3)n2n1)NCc1ccco1	nt	-1.1
O=C(Cc1ccc(NC(=O)N2CCSc3ncccc32)cc1)Nc1ccc(Br)cc1	0.53	16*
O=C(NC1CC1)C1CCN(c2ccccc2)C1=O (stereo unspecified)	0.1	nt
COc1ccc(S(=O)(=O)Nc2cc3[nH]c(=O)oc3cc2C)cc1	1.4	-1.8
Cc1ccccc1OCc1nn2c(Cn3nnc4ccccc43)nnc2s1	0.33	-1.8
COc1ccc(Cl)cc1NC(=O)c1cnn2c1NC(c1ccco1)CC2C(F)(F)F (stereo unspecified)	-14	-2.5
CN1C(=O)C(Cc2nc3ccccc3c(=O)n2CCc2ccccc2)c2ccccc21 (stereo unspecified)	0.41	-0.5
CSc1cccc(NC(=O)CSc2ncc(S(=O)(=O)c3ccccc3)c(N)n2)c1	-1.2	nt
CCCNC(=O)c1cc2c(=O)n3ccccc3nc2n1C	2	nt
CCNc1nc(NC(C)C)nc(NS(=O)(=O)c2ccc(N)cc2)n1	nt	-0.4
COc1ccc(-c2noc(-c3nnn(-c4ccc(OC)c(OC)c4)c3N)n2)cc1	0.6	nt
Cc1ccc(-c2csc(-c3ccccn3)n2)cc1	1.7	-1.6
CCOC(=O)c1cc(S(=O)(=O)NC(CC)c2cccs2)cn1C (stereo unspecified)	0.95	-0.66
Cc1cccc(-c2nc3ncccn3c2NCc2ccc(F)cc2)c1	-1.7	nt
COc1ccc(C2CC(=O)C3=C(C2)Nc2nnnn2C3c2cccnc2)cc1 (stereo unspecified)	-1.2	0.64
CC(=O)c1cccc(NC(=O)c2cnn3c(C(F)(F)F)cc(-c4cccs4)nc23)c1	nt	-1.2
CCOC(=O)C1CCN(c2cc(=O)n(C)c(=O)[nH]2)CC1	-0.66	-1.5
CCn1nc(C)c([N+](=O)[O-])c1C(=O)Sc1ccc(C(F)(F)F)cn1	nt	-1.3
CN(C)CCNC(=O)Cn1ncc2c1-c1ccccc1OC2	1.1	-0.53
O=C(CCc1ccccc1)OCc1cc(=O)n2nc(C3CCCCC3)sc2n1	0.33	nt
CCc1ccc(CNc2nc3nc4c(c(=O)n3[nH]2)CCCC4)cc1	1.5	-1.6
Cc1ccn2c(Nc3ccc4c(c3)OCO4)c(-c3ccco3)nc2c1	nt	0.72
O=C1NC(=Nc2ccccc2Cl)S/C1=C/c1cc(Br)cc(Cl)c1O	nt	-2.6
COc1ccc(Cc2nnc3sc(-c4ccccc4)nn23)cc1	0.06	-0.83
O=C(CCCc1ccccc1)N(c1ccc(F)cc1)C1C=CS(=O)(=O)C1 (stereo unspecified)	-0.53	-1.3
Cc1ccc(C2c3c(oc4ccccc4c3=O)C(=O)N2c2nncs2)cc1 (stereo unspecified)	1.1	-0.5
O=C(Cn1ncn2c(cc3ccccc32)c1=O)N1CCN(C(=O)c2ccco2)CC1	1.5	-0.51
O=C1CC(c2ccc(Br)cc2)C2=C(CC(c3cccs3)CC2=O)N1 (stereo unspecified)	0.36	3.8
Cc1ccccc1Nc1nc(Nc2ccccc2)nc2c1cnn2C	-0.36	nt
CCc1ccc(-n2ccc(=O)c(C(=O)Nc3nnc(C(C)C)s3)n2)cc1	0.05	-1.6
CCCCc1nnc(NC(=O)Nc2[nH]c(C)c(C(=O)OCC)c2C)s1	0.03	-0.14
Cc1csc(Sc2nc3c(c(=O)[nH]c(=O)n3C)n2CCCc2ccccc2)n1	1.4	0.76
CN(C)c1ccc(C(CNS(=O)(=O)CCc2ccccc2)N2CCc3ccccc32)cc1 (stereo unspecified)	2.1	nt

# Compound profiles (already shown). Screens in order: HIV TAR-Tat | CDC25B CDK2 inh
# Listed for CN(C)c1ccc(C(CNS(=O)(=O)CCc2ccccc2)N2CCc3ccccc32)cc1 (stereo unspecified) → 2.1 | nt
# Listed for O=C(CCc1ccccc1)OCc1cc(=O)n2nc(C3CCCCC3)sc2n1 → 0.33 | nt
# Listed for COc1ccc(C2CC(=O)C3=C(C2)Nc2nnnn2C3c2cccnc2)cc1 (stereo unspecified) → -1.2 | 0.64
# Listed for Cc1ccc(C2c3c(oc4ccccc4c3=O)C(=O)N2c2nncs2)cc1 (stereo unspecified) → 1.1 | -0.5
# Listed for CCCCc1nnc(NC(=O)Nc2[nH]c(C)c(C(=O)OCC)c2C)s1 → 0.03 | -0.14

# The results go on:
Structure	HIV TAR-Tat	CDC25B CDK2 inh
CC1Cc2cc(S(=O)(=O)NCCN(C)C)ccc2N1C(=O)C1CC1 (stereo unspecified)	1.7	nt
CC(=O)N1c2ccc(S(=O)(=O)N(C)C3CCCCC3)cc2CC1C (stereo unspecified)	0.93	nt
Cc1cc(-c2ccc(C)c(S(=O)(=O)NCCCN3CCCC(C)C3)c2)on1 (stereo unspecified)	0.58	nt
O=S(=O)(c1ccc(Br)cc1)N1CCN(c2ccc3nncn3n2)CC1	1.1	-0.78
O=C(CCCNC(=O)Cn1cnc2sc3c(c2c1=O)CCCC3)NCc1ccccn1	nt	-0.08
COC1(C)CCC2OC2(C)CCC2C1CC2(C)C (stereo unspecified)	2.1	nt
CCc1cc2c(=O)c(-c3nc4ccccc4s3)coc2cc1OC(C)=O	2.5	-0.73
O=C(CNc1cc(C(F)(F)F)cc(C(F)(F)F)c1)c1cc2cc(Cl)ccc2o1	nt	-1.8
CCOC(=O)c1c(NC(=O)c2noc(C)c2[N+](=O)[O-])sc2c1CCCC2	2.2	-0.4
CNS(=O)(=O)c1ccc2[nH]c(=O)c(=O)[nH]c2c1	0.58	-2.2
O=S(=O)(NC1CCCCC1N1CCN(Cc2ccc3c(c2)OCO3)CC1)c1ccc(Cl)cc1 (stereo unspecified)	0.53	-1.4
Cc1nn(-c2ccc([N+](=O)[O-])cc2)c(Cl)c1S(=O)(=O)O	nt	-1.8
COc1ccc(O)c(C2=NN3C(C2)c2cccc(OC)c2OC3c2cccc(F)c2)c1 (stereo unspecified)	0.68	0.63
O=c1c2c(nc3nc(Cc4ccc(Cl)cc4)[nH]n13)CCCC2	0.75	-3.3
CNC(=O)NC1=C(C#N)C(C)(C)Cc2ccccc21	2	-1.3
O=C1c2ccccc2C(=O)N1N1C(=O)C2C3C=CC(C3)C2C1=O (stereo unspecified)	nt	-1.4
CCC(=O)N1CCc2cc(Br)cc(S(=O)(=O)NCCN(C)C)c21	nt	1.6
Cc1nn(CC(=O)NC2CCC(C)CC2)c(=O)c2cc3occc3n12 (stereo unspecified)	0.41	-0.1
CNC(=O)NNC(=O)Cn1cc(Cl)c(=O)c(Cl)c1	nt	0.55
Cc1cccc(NC(=O)CC2S/C(=N\N=C\c3cccc(O)c3)NC2=O)c1C (stereo unspecified)	nt	-3.6
O=C(Nc1nc(-c2ccc(F)cc2)ns1)c1ccc(F)cc1	2.6	-3.6
CN(C)CC#Cc1ccc(-c2ccn(S(=O)(=O)c3ccc(Cl)cc3)n2)s1	nt	-1.1
CN(C)CCCN(C(=O)COc1ccc(Cl)cc1)c1nc2ccc(F)cc2s1	1.4	nt
COc1ccc(-c2nc(N/N=C/c3cccs3)[nH]c(=O)c2C#N)cc1	nt	-1.8
CCCCCn1c(CN2CCN(CCO)CC2)nc2c1c(=O)n(C)c(=O)n2C	2.6	-2.1
O=C(C1CCCN(c2nnc(N3CCCCC3=O)s2)C1)N1CCN(c2ccccc2)CC1 (stereo unspecified)	2.5	nt
Cc1ccc(OCC(=O)NN)c2c1CCC2	nt	0.1
Nc1c(-c2nc(-c3ccccc3Cl)no2)nnn1-c1cccc(Cl)c1	-0.53	nt
CC(C)CCNC(=O)Cn1ncn2cccc2c1=O	1	0.15
CCOc1ccc(-c2cccc(NS(=O)(=O)c3cc(C)c(C)cc3C)c2)nn1	1.1	nt
Clc1ccc(Cc2nnc3sc(/C=C/c4ccco4)nn23)cc1	19*	4.2*
CCO/N=C/c1nn(C(=O)NC)cc1Br	nt	-0.81
COC(=O)c1sccc1NS(=O)(=O)c1c(C(=O)OC)sc2ccccc12	-0.02	nt
Nc1nc(COc2ccccc2)nc2sc3c(c12)CCCC3	0.78	0.99
CCC(=O)Nc1ccc2nc(SCC(=O)Nc3ccccc3C(=O)OC)sc2c1	nt	-3.9
O=C(Nc1c(C(c2ccccc2F)N2CCOCC2)oc2ccccc12)c1ccccc1 (stereo unspecified)	-0.08	-0.03
Cn1c(=O)n(C)c2cc(N3CCCCC3)c(NC(=O)NC3CCCCC3)cc21	-0.83	-1.1
C=CCn1c(O)c(C2=Nc3ccccc3SC(c3ccc(Cl)cc3)C2)c(=O)[nH]c1=O (stereo unspecified)	4.7	-2.2
O=C1c2cc(S(=O)(=O)N3CCCCC3)ccc2-c2ccc(S(=O)(=O)N3CCCCC3)cc21	1.9	-0.56
COc1ccc(C2/C(=C(\O)c3ccc(Cl)cc3)C(=O)C(=O)N2CCCn2ccnc2)cc1OC (stereo unspecified)	1.6	-0.95
O=C(Cc1noc2ccccc12)Nc1ccc(Cl)cc1	-0.54	-1.1
Cc1nn(-c2ccc(N3CCOCC3)nn2)c(C)c1CCC(=O)N1CCOCC1	1.6	nt
c1ccc(-c2cccc(-c3ccccc3)n2)cc1	nt	-1.9
O=C(Cn1cnc(S(=O)(=O)N2CCc3ccccc32)c1)Nc1ccc(F)cc1F	-0.4	nt
Nc1nonc1-n1nnc(C(=O)O)c1-c1ccc2c(c1)OCO2	nt	-0.98
OC(COc1ccc(Cl)cc1)CN1CCN(c2ccccc2)CC1 (stereo unspecified)	nt	-0.54
COc1ccc(C2NC(=O)c3[nH]nc(-c4ccc(C)cc4)c32)cc1OC (stereo unspecified)	0.71	nt
CCS(=O)(=O)N1CCCc2ccc(NS(=O)(=O)c3ccc(Cl)cc3)cc21	0.61	nt
CCOc1ccc(C2CC(c3cccc(Cl)c3)n3nc(N)nc3N2)cc1 (stereo unspecified)	1.1	-1.2
Nc1c(-c2ccc(Cl)cc2)cnn1-c1ncc(C(F)(F)F)cc1Cl	nt	-0.93

# Entries listed so far that contain a nitro group on carbon, in the order listed:
Structure	HIV TAR-Tat	CDC25B CDK2 inh
CCn1nc(C)c([N+](=O)[O-])c1C(=O)Sc1ccc(C(F)(F)F)cn1	nt	-1.3
CCOC(=O)c1c(NC(=O)c2noc(C)c2[N+](=O)[O-])sc2c1CCCC2	2.2	-0.4
Cc1nn(-c2ccc([N+](=O)[O-])cc2)c(Cl)c1S(=O)(=O)O	nt	-1.8

# Later entries
Structure	HIV TAR-Tat	CDC25B CDK2 inh
Cc1cc(C)c2ccc(C3C(=O)c4ccc(O)cc4C3=O)nc2c1 (stereo unspecified)	0.35	0
O=c1c2[nH]cc(-c3ccccc3)c2ncn1CCc1ccccc1	0.69	0.38
O=C(Cn1cc2c(n1)CCCC2)Nc1ccc(Br)cc1F	0.37	-1.3
CCOC(=O)Cn1c(=O)oc2cc(S(=O)(=O)Nc3ccc(N(CC)CC)cc3C)ccc21	0.18	-0.83
O=C(c1ccc(Cl)cc1)N1CCC(c2nc(-c3ccc(Cl)cc3)no2)CC1	nt	-0.18
CCCC12CN3CC(C)(CN(C1)C3c1c[nH]c3ccccc13)C2=O (stereo unspecified)	nt	-1.4
O=C(COc1ccccc1F)Nc1nnc(SCc2cc(=O)c3ccccc3[nH]2)s1	1.4	nt
CCOC(=O)c1c(C)oc2ccc(OCC(=O)OC(C)(C)C)cc12	1.6	-4.5
COc1ccc(-c2n[nH]c(C)c2-c2ccc(F)cc2)c(O)c1	0.09	-0.66
CCOC(=O)c1c(C)[nH]c(C)c1S(=O)(=O)NCC1CCN(CCc2cccs2)CC1	0.15	nt
COc1ccc(OC)c(-c2noc(NC3CCCCC3)n2)c1	-0.01	nt
Oc1c(C(c2ccc(Br)cc2)N2CCOCC2)ccc2cccnc12 (stereo unspecified)	1.5	nt
